# High-throughput results as filed in PubChem BioAssay.
# HIV Env fusion = HIV envelope-mediated fusion inhibition; HeLa-JRFL Env/CEM21 cell fusion, luciferase; inhibition, % at 12.3 µM; AID 651610; 360,000 compounds, 1.1% hits;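 active = mean replicate inhibition score of at least 50 and every replicate individually at or above 50; inconclusive = only one of the two criteria met; inactive = mean below 50 and not all replicates reaching 50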;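 note: 0% = plate neutral controls and 100% = maraviroc near 300 nM; one replicate is shown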
# Yeast UUG start = yeast start codon fidelity modulation; S. cerevisiae UUG-firefly luciferase reporter, luminescence/redox ratio; 350,000 compounds, 0.13% hits; activity score, % at 18.7 µM; AID 602363;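 active = replicate mean at a twofold rise or more, about +100% in these data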;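 note: firefly luciferase made from a UUG start codon reports start codon fidelity; reporter light over untreated wells divided by growth signal over untreated wells; some hits fall short of that in this replicate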
# The depositor's hits bear a star; ? = inconclusive; [ ] = another dose, or the depositor's remark.
HIV Env fusion	Yeast UUG start	Structure
-22.0[16.7 µM]	12.0	COc1ccc(S(=O)(=O)Nc2ccc3c(c2)C(=O)N([C@@H](C)CO)C[C@H](C)[C@H](CN(C)C(=O)c2ccccc2)OCCCC[C@H](C)O3)cc1
-27.7[16.7 µM]	-18.2	CCCc1cn(CC[C@H]2CC[C@@H](NC(=O)C3CCCCC3)[C@@H](CO)O2)nn1
-9.2[16.7 µM]	-15.1	N#C[C@H]1[C@H](c2ccc(C#CC3CCCCC3)cc2)[C@@H](CO)N1C(=O)Cc1ccccn1
60.2*[16.7 µM]	-11.5	Cc1ccc(S(=O)(=O)N(C)C[C@H]2Oc3cc(C4=CCCC4)ccc3S(=O)(=O)N([C@H](C)CO)C[C@H]2C)cc1
-14.1[16.7 µM]	19.6	C[C@H]1CN([C@@H](C)CO)C(=O)Cc2cc(NC(=O)Cc3cn(C)c4ccccc34)ccc2O[C@@H]1CN(C)Cc1ccc(C(F)(F)F)cc1
-13.9[16.7 µM]	7.4	CC(C)C#Cc1cnc2c(c1)C(=O)N([C@@H](C)CO)C[C@H](C)[C@H](CN(C)C(=O)Cc1ccncc1)O2
1.4[16.7 µM]	-5.8	CNC(=O)C[C@H]1CC[C@@H]2[C@@H](COc3ccc(NC(=O)c4cnccn4)cc3C(=O)N2C)O1
-56.6[16.7 µM]	11.5	C[C@@H]1CCCCO[C@H](CN(C)S(=O)(=O)c2ccccc2)[C@H](C)CN([C@@H](C)CO)C(=O)c2cc(NC(=O)CCC(F)(F)F)ccc2O1
1.2[16.7 µM]	-12.8	CCCNC(=O)N1[C@H](C#N)[C@H](c2ccc(-c3cccc(OC)c3)cc2)[C@H]1CO
-7.4[16.7 µM]	-6.5	COCC(=O)Nc1ccc2c(c1)[C@@H]1C[C@H](CC(=O)NC3CCCC3)O[C@@H](CO)[C@@H]1O2
-3.5[16.7 µM]	16.3	C[C@H](CO)N1C[C@H](C)[C@H](CN(C)C(=O)Nc2ccccc2F)Oc2cc(-c3ccc(C(=O)N(C)C)cc3)ccc2S1(=O)=O
11.1[16.7 µM]	14.8	CCNC(=O)C[C@@H]1CC[C@H]2[C@H](COc3ccc(NC(=O)c4cccc(C(F)(F)F)c4)cc3C(=O)N2C)O1
-185.9[16.7 µM]	13.2	C[C@H](CO)N1C[C@H](C)[C@H](CN(C)C(=O)C2CCCCC2)OCCCC[C@H](C)Oc2ccc(NC(=O)c3ccccc3)cc2C1=O
-3.5[16.7 µM]	-2.8	CNC(=O)C[C@H]1CC[C@H]2[C@H](COc3ccc(NC(=O)C4CC4)cc3C(=O)N2C)O1
-6.1[16.7 µM]	2.6	C[C@H]1CN([C@@H](C)CO)C(=O)c2cccc(NC(=O)C3CCCCC3)c2O[C@H]1CN(C)C
-21.9[16.7 µM]	-1.5	Cc1noc(C)c1NC(=O)Nc1ccc2c(c1)C(=O)N([C@@H](C)CO)C[C@@H](C)[C@@H](CN(C)C(=O)Nc1c(C)noc1C)OCCCC[C@@H](C)O2
-7.9[16.7 µM]	-11.4	C[C@H]1CN([C@@H](C)CO)C(=O)c2cccc(NC(=O)Nc3ccc4c(c3)OCO4)c2O[C@H]1CN(C)Cc1ccncc1
-6.3[16.7 µM]	14.0	O=C(Nc1ccc2c(c1)OCO2)N[C@H]1CC[C@@H](CCNC(=O)C2CCC2)O[C@@H]1CO
1.2[16.7 µM]	16.5	C[C@H](CO)N1C[C@H](C)[C@@H](CN(C)S(=O)(=O)c2cn(C)cn2)OCCCC[C@H](C)Oc2ccc(NS(=O)(=O)c3cccs3)cc2C1=O
14.4[16.7 µM]	8.3	COCC#Cc1ccc2c(c1)O[C@@H](CN(C)Cc1ccccc1)[C@H](C)CN([C@H](C)CO)S2(=O)=O
-28.5[16.7 µM]	5.6	CC(=O)N(C)C[C@@H]1Oc2cc(C#CC3(O)CCCC3)ccc2S(=O)(=O)N([C@H](C)CO)C[C@@H]1C
-4.6[16.7 µM]	18.0	CC(C)CC#Cc1cnc2c(c1)C(=O)N([C@H](C)CO)C[C@H](C)[C@H](CN(C)C(=O)c1cccnc1)O2
-10.0[16.7 µM]	-11.3	CNC[C@@H]1Oc2ccc(NS(=O)(=O)c3c(C)noc3C)cc2C(=O)N([C@@H](C)CO)C[C@H]1C
9.4[16.7 µM]	0.5	COCC(=O)N(C)C[C@@H]1Oc2ncc(C3=CCCC3)cc2C(=O)N([C@@H](C)CO)C[C@H]1C
7.2[16.7 µM]	10.1	C[C@@H]1CCCCO[C@H](CN(C)Cc2ccc(Cl)c(Cl)c2)[C@@H](C)CN([C@H](C)CO)C(=O)c2cc(NC(=O)c3ccncc3)ccc2O1
6.5[16.7 µM]	-5.7	C/C=C/c1ccc2c(c1)O[C@@H](CN(C)Cc1cccc(F)c1)[C@H](C)CN([C@@H](C)CO)S2(=O)=O
-28.7[16.7 µM]	14.4	C/C=C/c1cnc2c(c1)C(=O)N([C@H](C)CO)C[C@H](C)[C@H](CN(C)C(=O)Nc1cccc(OC)c1)O2
-5.9[16.7 µM]	8.4	CC(=O)N(C)C[C@@H]1Oc2ncc(C#Cc3ccccn3)cc2C(=O)N([C@@H](C)CO)C[C@H]1C
-39.8[16.7 µM]	-0.2	C[C@@H]1CN([C@@H](C)CO)C(=O)c2cc(NS(=O)(=O)c3ccc(F)cc3)ccc2O[C@@H]1CN(C)Cc1ccc(C(F)(F)F)cc1
2.3[16.7 µM]	0.6	CCCNC(=O)Nc1ccc2c(c1)C(=O)N(C)C[C@@H](OC)[C@@H](C)CN(C(C)=O)[C@@H](C)CO2
-18.0[16.7 µM]	2.3	COc1ccccc1-c1cnc2c(c1)C(=O)N([C@@H](C)CO)C[C@@H](C)[C@H](CN(C)C)O2
47.9[16.7 µM]	-0.7	C/C=C/c1ccc2c(c1)O[C@@H](CN(C)S(=O)(=O)c1ccc(C)cc1)[C@@H](C)CN([C@@H](C)CO)S2(=O)=O

# Whole records from above:
# Record of C/C=C/c1ccc2c(c1)O[C@@H](CN(C)S(=O)(=O)c1ccc(C)cc1)[C@@H](C)CN([C@@H](C)CO)S2(=O)=O = HIV Env fusion = 47.9[16.7 µM]; Yeast UUG start = -0.7
# Record of CCCNC(=O)Nc1ccc2c(c1)C(=O)N(C)C[C@@H](OC)[C@@H](C)CN(C(C)=O)[C@@H](C)CO2 = HIV Env fusion = 2.3[16.7 µM]; Yeast UUG start = 0.6

# Other structures:
HIV Env fusion	Yeast UUG start	Structure
45.8[16.7 µM]	71.0	Cc1noc(C)c1S(=O)(=O)N(C)C[C@H]1Oc2ccc(NC(=O)Nc3ccc(F)cc3)cc2CC(=O)N([C@@H](C)CO)C[C@H]1C
16.4[16.7 µM]	-5.5	C[C@@H]1CN([C@@H](C)CO)C(=O)c2cc(C#CC3(O)CCCC3)cnc2O[C@@H]1CN(C)S(=O)(=O)c1ccccc1
-14.4[16.7 µM]	-10.0	O=C(C[C@@H]1CC[C@@H](NC(=O)CN2CCOCC2)[C@@H](CO)O1)NC1CCC1
-18.6[16.7 µM]	-7.5	Cc1ccc(S(=O)(=O)N(C)C[C@H]2OCCCC[C@H](C)Oc3ccc(NS(=O)(=O)c4ccc(Cl)cc4)cc3C(=O)N([C@@H](C)CO)C[C@H]2C)cc1
24.0[16.7 µM]	5.6	C[C@@H]1CCCCO[C@H](CN(C)C(=O)CCCN(C)C)[C@H](C)CN([C@@H](C)CO)C(=O)c2cc(NS(=O)(=O)c3cccs3)ccc2O1
-3.5[16.7 µM]	-18.7	C[C@@H]1CN([C@H](C)CO)C(=O)c2cccc(NC(=O)C3CCOCC3)c2O[C@@H]1CN(C)C(=O)Nc1ccc(F)cc1
5.0[16.7 µM]	4.8	CCCN(C)C[C@H]1Oc2cc(-c3ccc(C)cc3)ccc2S(=O)(=O)N([C@H](C)CO)C[C@@H]1C
16.1[16.7 µM]	-7.9	C[C@H]1CN([C@@H](C)CO)C(=O)c2cc(NC(=O)Nc3ccc(C(F)(F)F)cc3)ccc2O[C@H]1CN(C)C(=O)Nc1ccc(C(F)(F)F)cc1
-6.9[16.7 µM]	-5.4	O=C(Nc1ccc2c(c1)OCO2)N[C@H]1CC[C@H](CCNC(=O)C2CC2)O[C@@H]1CO
-6.0[16.7 µM]	8.4	C[C@@H]1CN([C@H](C)CO)C(=O)c2cc(-c3ccc(F)cc3)cnc2O[C@H]1CN(C)C(=O)C1CCC1
-33.0[16.7 µM]	-5.0	COc1ccc(NC(=O)N(C)C[C@@H]2OCCCC[C@@H](C)Oc3ccc(NC(=O)c4ccccc4)cc3C(=O)N([C@H](C)CO)C[C@H]2C)cc1
12.4[16.7 µM]	10.6	C[C@H](CO)N1C[C@H](C)[C@H](CN(C)Cc2ccc(Cl)c(Cl)c2)Oc2ccc(NC(=O)Nc3ccc(F)cc3)cc2CC1=O
-2.8[16.7 µM]	11.9	Cc1noc(C)c1S(=O)(=O)Nc1ccc2c(c1)CC(=O)N([C@@H](C)CO)C[C@@H](C)[C@H](CN(C)C(=O)Nc1ccc3c(c1)OCO3)O2
?	10.3	C[C@@H]1CCCCO[C@H](CN(C)Cc2ccc(C(F)(F)F)cc2)[C@H](C)CN([C@H](C)CO)C(=O)c2cc(NS(=O)(=O)c3ccc(Cl)cc3)ccc2O1
18.1[16.7 µM]	8.6	Cc1ccc(S(=O)(=O)Nc2ccc3c(c2)C(=O)N([C@H](C)CO)C[C@H](C)[C@H](CN(C)Cc2ccc4c(c2)OCO4)OCCCC[C@@H](C)O3)cc1
-3.4[16.7 µM]	26.4	Cc1noc(C)c1NC(=O)Nc1ccc2c(c1)C(=O)N([C@@H](C)CO)C[C@H](C)[C@@H](CN(C)S(=O)(=O)c1ccc(F)cc1)O2
0.6[16.7 µM]	-1.2	CCC(=O)N[C@H]1CC[C@H](CC(=O)NCc2ccc(OC)cc2)O[C@H]1CO
4.6[16.7 µM]	-11.3	CCCNC(=O)N(C)C[C@@H]1Oc2ncc(C#Cc3ccncc3)cc2C(=O)N([C@H](C)CO)C[C@H]1C
?	-0.1	C[C@H]1CN([C@@H](C)CO)C(=O)c2cc(NS(=O)(=O)c3ccc(F)cc3)ccc2O[C@@H]1CN(C)Cc1ccc(C(=O)O)cc1
20.8[16.7 µM]	15.6	COc1ccc(CN(C)C[C@H]2Oc3c(NS(=O)(=O)c4ccc(OC)cc4)cccc3C(=O)N([C@H](C)CO)C[C@@H]2C)cc1
54.5[16.7 µM]	-11.9	O=C(C[C@H]1C[C@H]2c3cc(NS(=O)(=O)c4ccc(F)cc4)ccc3O[C@H]2[C@H](CO)O1)NCc1ccc(-c2ccccc2)cc1
-6.4[16.7 µM]	-1.0	Cc1noc(C)c1NC(=O)Nc1ccc2c(c1)C(=O)N([C@@H](C)CO)C[C@@H](C)[C@@H](CN(C)S(C)(=O)=O)OCCCC[C@@H](C)O2
-26.1[16.7 µM]	4.8	C[C@@H]1CCCCO[C@@H](CN(C)CC2CCCCC2)[C@@H](C)CN([C@H](C)CO)C(=O)c2cc(NS(=O)(=O)c3cccs3)ccc2O1
-3.4[16.7 µM]	1.9	C[C@H](CO)N1C[C@H](C)[C@@H](CN(C)CC2CCCC2)Oc2ncc(-c3ccc(C#N)cc3)cc2C1=O
-0.8[16.7 µM]	-16.8	Cc1ccc(S(=O)(=O)N[C@H]2C=C[C@@H](CC(=O)NCc3ccncn3)O[C@@H]2CO)cc1
0.1[16.7 µM]	8.2	COCC#Cc1ccc2c(c1)O[C@H](CN(C)Cc1cncnc1)[C@@H](C)CN([C@H](C)CO)S2(=O)=O
7.8[16.7 µM]	2.4	C[C@H]1CN([C@@H](C)CO)C(=O)CCCn2nncc2CO[C@H]1CN(C)CC1CCCC1
-4.3[16.7 µM]	-15.2	COc1ccc(NC(=O)Nc2ccc3c(c2)CC(=O)N([C@@H](C)CO)C[C@H](C)[C@H](CN(C)C(=O)NC(C)C)O3)cc1
-25.1[16.7 µM]	-2.8	COc1cccc(S(=O)(=O)N[C@H]2CC[C@@H](CC(=O)NCc3ccccc3)O[C@@H]2CO)c1
-6.3[16.7 µM]	6.2	C[C@H]1CN([C@@H](C)CO)S(=O)(=O)c2ccc(C#CCN(C)C)cc2O[C@H]1CN(C)Cc1ccccc1
9.6[16.7 µM]	12.6	C[C@H]1CN([C@@H](C)CO)C(=O)c2cc(C#Cc3ccccc3F)cnc2O[C@H]1CN(C)C(=O)C1CCOCC1
-7.5[16.7 µM]	14.8	Cc1ccc(S(=O)(=O)Nc2ccc3c(c2)C(=O)N([C@H](C)CO)C[C@H](C)[C@@H](CN(C)S(=O)(=O)c2cn(C)cn2)OCCCC[C@H](C)O3)cc1
-0.3[16.7 µM]	-6.6	O=S(=O)(N[C@H]1CC[C@@H](CCn2cc(-c3ccccc3F)nn2)O[C@H]1CO)c1ccc(Cl)cc1
-33.0[16.7 µM]	6.1	CNC[C@H]1OCCCC[C@H](C)Oc2ccc(NS(=O)(=O)c3ccc(F)cc3)cc2C(=O)N([C@@H](C)CO)C[C@H]1C
45.5[16.7 µM]	18.3	Cc1ccc(S(=O)(=O)N(C)C[C@@H]2OCCCC[C@@H](C)Oc3ccc(NS(=O)(=O)c4ccc(Cl)cc4)cc3C(=O)N([C@@H](C)CO)C[C@@H]2C)cc1
3.2[16.7 µM]	22.0	CC(C)NC(=O)Nc1ccc2c(c1)C(=O)N(C)[C@@H]1CC[C@H](CC(=O)NCC3CCCCC3)O[C@H]1CO2
-14.8[16.7 µM]	5.4	C[C@@H]1CCCCO[C@@H](CN(C)S(=O)(=O)c2cccs2)[C@H](C)CN([C@H](C)CO)C(=O)c2cc(NC(=O)NC3CCCCC3)ccc2O1
-11.4[16.7 µM]	-9.0	C[C@H](CO)N1C[C@H](C)[C@@H](CN(C)C(=O)C2CCCCC2)Oc2ncc(-c3ccncc3)cc2C1=O

# These rows are one share of the data. The share of hits here may be higher or lower than overall.
